# Rce1 inhib – yeast Ras-converting enzyme inhibition | Q03530 | yeast membranes, quenched prenylated peptide cleavage fluorescence | calls only | 0.27% of 290,000 active;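 active means fall in fluorescence gain of 50% or more versus controls, with final raw signal at or below 3038400; inconclusive means same 50% fall but final raw signal above 3038400; inactive means fall in fluorescence gain under 50%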;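 further: plate controls were neutral control wells for no effect and wells lacking membranes for full effect; tested at 10 µM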
# Env fusion inh – blocks HIV Env-driven cell-cell fusion. 1.1% of 360,000 active. AID 651610. inhibition, % at 12.3 µM. HeLa-JRFL Env/CEM21 cell fusion, luciferase;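 active means mean replicate inhibition score of at least 50 and every replicate individually at or above 50; inconclusive means only one of the two criteria met; inactive means mean below 50 and not all replicates reaching 50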;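 further: 0% = plate neutral controls and 100% = maraviroc near 300 nM; one replicate is shown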
# eIF4H inh – inhibitors of RNA binding by human eIF4H | eIF4H fluorescence polarization binding assay | AID 2012 | 0.94% of 290,000 active | Q15056 | inhibition, % at 35 µM;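 active means 50% or more with normal probe brightness, or confirmed in later tests; inconclusive means above 50% with abnormal brightness, or retests that disagree; inactive means below 50% or failed in later tests; about a fifth of its hits are not listed in these tables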;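 further: calls also rest on retests at 20 µM and on dose response follow-up; 0% = protein and probe with vehicle and 100% = probe without protein; strong numbers were not always called active; many hits fall short of the cut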
# Yeast UUG start – yeast start codon fidelity modulation. S. cerevisiae UUG-firefly luciferase reporter, luminescence/redox ratio. activity score, % at 18.7 µM. 0.13% of 350,000 active;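 active means replicate mean at a twofold rise or more, about +100% in these data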;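 further: firefly luciferase made from a UUG start codon reports start codon fidelity; reporter light over untreated wells divided by growth signal over untreated wells; some hits fall short of that in this replicate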
# PABP polyA inh – blocks human PABP binding to poly(A) RNA. P11940. fluorescence polarization. inhibition, % at 35 µM. 1% of 290,000 active. AID 2014;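 active means 50% or more with normal probe brightness, or confirmed in later tests; inconclusive means above 50% with abnormal brightness, or retests that disagree; inactive means below 50% or failed in later tests; about a fifth of its hits are not listed in these tables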;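 further: calls also rest on retests at 20 µM and on dose response follow-up; controls were probe without protein and protein plus probe with vehicle; some compounds called inactive have numbers as strong as hits; many hits fall short of the cut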
# Target sequence (P11940 whole entry, looked up): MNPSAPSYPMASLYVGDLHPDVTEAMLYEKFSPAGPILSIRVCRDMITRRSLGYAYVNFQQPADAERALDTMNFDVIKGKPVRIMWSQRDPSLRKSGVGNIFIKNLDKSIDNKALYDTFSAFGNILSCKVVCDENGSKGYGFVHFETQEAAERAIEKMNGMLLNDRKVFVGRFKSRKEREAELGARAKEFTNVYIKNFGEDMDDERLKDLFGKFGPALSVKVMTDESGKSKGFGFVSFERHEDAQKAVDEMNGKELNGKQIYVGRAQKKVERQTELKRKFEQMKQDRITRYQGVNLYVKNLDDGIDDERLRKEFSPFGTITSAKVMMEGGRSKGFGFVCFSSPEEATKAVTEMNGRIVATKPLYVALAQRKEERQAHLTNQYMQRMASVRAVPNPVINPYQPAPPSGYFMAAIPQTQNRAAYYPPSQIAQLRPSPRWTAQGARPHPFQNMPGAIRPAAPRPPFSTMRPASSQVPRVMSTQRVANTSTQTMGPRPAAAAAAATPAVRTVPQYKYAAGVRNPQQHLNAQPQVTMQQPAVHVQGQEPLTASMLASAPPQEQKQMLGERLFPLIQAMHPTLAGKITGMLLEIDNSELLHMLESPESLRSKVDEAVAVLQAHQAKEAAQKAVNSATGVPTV
# CSC inhib – blocks cancer stem cells | inhibition, % at 7.5 µM | 1.1% of 300,000 active | cancer stem cell-like cells viability, luminescence;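 active means mean at 75% or more and at least half the replicates too; inconclusive means mean and replicates disagree; tested in HMLE shEcad cells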;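 further: 0% = median of negative and 100% = median of positive control wells; the first replicate is given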
# MT1-MMP act inh – MT1-MMP (human) activation inhibition. HT1080 RFP-PRO-GFP cells, GFP/RFP ratio fluorescence, overnight; percent of plate control window, DMSO zero. GFP/RFP ratio change, % at 20 µM. 0.061% of 360,000 active;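 active means GFP/RFP ratio change of at least 30% with cell ATP level not reduced by more than half and red fluorescence within 50% of control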; further: strong numbers were not always called active
#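 Material: RFP-PRO-GFP reporter HT1080 cells. Dosing: single-point 20 µM compound, 1% DMSO. Controls: DMSO and RFP-L50D-GFP cell wells. Timing: cells overnight before dosing, compound overnight, 37 °C, 5% CO2. Measure: GFP/RFP fluorescence ratio.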
# MT1-MMP act inh RFP – recorded beside MT1-MMP act inh, whose call it bears; RFP signal change, %; measured here: RFP expression control read;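 0 = vehicle wells; hits needed this value within 50% of zero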
# The depositor's hits bear a star; i = inactive; ? = inconclusive; . = not tested or not shown; & = joins results of further samples; [ ] = remark or other dose.
SMILES,Rce1 inhib,Env fusion inh,eIF4H inh,Yeast UUG start,PABP polyA inh,CSC inhib,MT1-MMP act inh,MT1-MMP act inh RFP
CCOC(=O)N1CCC(NC(=O)c2cc3cc4cc(OC)ccc4nc3o2)CC1,i,-3,-6,-11,11,-6,10,-3
O=C(C1=C[C@@H](c2ccc(C(F)(F)F)cc2)C[C@@H](OCCCCO)O1)N1CCN(Cc2ccc3c(c2)OCO3)CC1,i,17[16.7 µM],-4,-7&-4,0,11,3,-6
COc1ccc(/C=C/C(=O)NC(=S)NCc2ccccc2)cc1OC,i,11,0,.,-6,-5,7,-4
COc1ccc(C(C[N+](=O)[O-])c2c(C)[nH]n(-c3ccccc3)c2=O)cc1 (stereo unspecified),i,7,7,-8,6,2,2,3
CC(NC(=S)Nc1cccc(F)c1)C(c1cccs1)N1CCOCC1 (stereo unspecified),i,18,-8,-10,-1,-4,4,7
CCc1cc2cc(C)cc(C)c2nc1Cl,i,-2,8,-2,3,-3,1,4
Cc1cc(/C=C2\SC(=S)N(C)C2=O)c(C)n1-c1ccccc1O,i,6,.,-28,.,98*,-157,-28
CCn1c(SCC(=O)N2CCN(c3ccc(Cl)cc3)CC2)nc2ccccc2c1=O,i,29,2,-20,47,4,-5,5
CCOc1ccc(NC(=O)CC2C(=O)NCCN2C(=O)c2ccc(Cl)cc2)cc1 (stereo unspecified),.,7,-2,.,-6,4,-1,0
COc1cc(C2NC(=O)N(C)C(C)=C2C(=O)OCc2ccccc2)cc(Br)c1O (stereo unspecified),i,-36,0,11,6,-16,-4,1
Cc1cc(C)c(C(CC(=O)c2cccs2)C(C#N)C#N)c(C)c1 (stereo unspecified),i,17,-11,.,4,?,-8,-8
Cn1c(CCN2CCN(c3ccccn3)CC2)nc2cc(NS(=O)(=O)c3ccc(F)cc3)ccc21,.,6,.,-2,.,.,6,-12
CC(CNC(=O)c1ccco1)NC(=O)c1ccco1 (stereo unspecified),i,-2,3,-9,7,-6,2,6
COc1ccc(N2CCN(C(=S)Nc3ccccc3)CC2)cc1,i,1,-12,-26,-1,-17,3,-4
O=C1CCCCC1(CCc1ccncc1)CCc1ccncc1,.,26,.,-13,.,.,-2,-18
COc1cc(Cl)c(S(=O)(=O)NCc2ccccn2)cc1Cl,i,-23,-14,.,4,4,-1,-2
COC(=O)C(Cc1c[nH]c2ccccc12)NC(=O)c1cccs1 (stereo unspecified),i,-15,-4,-2,-5,-13,2,1
COc1ccccc1NC(=O)CSc1nnc(-c2ccoc2C)o1,.,.,.,9,.,38,-3,-2
Clc1cccc(-c2nc3c4ccccc4ccn3c2Cc2ccccc2)c1,.,-18,.,-25,.,.,-4,-2
O=C(CCCOc1ccc(Cl)cc1Cl)Nc1ncccn1,i,-3,-4,-6,0,1,5,-1
Cc1ccc(NC(=O)CS(=O)CC(=O)Nc2cnc3ccccc3c2)cc1Cl (stereo unspecified),i,4,6,.,-6,-5,2,-2
COc1ccc(CN2CCNC(=O)C2CC(=O)NCCCC2CCCC2)c(F)c1 (stereo unspecified),i,14,1,9,-1,11,-3,1
CCC(C)C(NC(=O)c1ccccc1NC(=O)c1ccc(OC)cc1)C(=O)NCCCn1ccnc1 (stereo unspecified),i,-4,8,-14,7,14,-2,-5
COC(=O)[C@H](C)NC(=O)NCc1ccccc1F,i,.,3,5,-2,-1,-3,2
Cc1nn(-c2ccc(F)cc2)c(Cl)c1C(=O)N(C)CC(=O)Nc1cccc(F)c1,i,27,.,-28,.,1,1,-16
O=C(COc1ccccc1Cl)NCCNC(=O)c1ccccn1,i,4,-4,-19,0,.,-1,-1
CCC(CC)NC(=O)C1CC(=O)N(CCc2ccc(F)cc2)C1 (stereo unspecified),i,-234,2,4,5,1,2,3
Cc1ccc(C(=O)c2c[nH]c(C(=O)NCCCN3CCOCC3)c2)cc1,i,-34,7,-10,-6,-1,5,5
Cc1ccc(/C=C/C(=O)Nc2ccccc2C(N)=O)cc1,i,-176,5,.,-9,14,3,2
NC(=O)C(c1ccc(Cl)cc1Cl)c1ncc(C(F)(F)F)cc1Cl (stereo unspecified),i,-52,-5,7,6,8,-3,-2

# Whole records as entered above. Order of values: Rce1 inhib | Env fusion inh | eIF4H inh | Yeast UUG start | PABP polyA inh | CSC inhib | MT1-MMP act inh | MT1-MMP act inh RFP
# Entry for `CCc1cc2cc(C)cc(C)c2nc1Cl` : i | -2 | 8 | -2 | 3 | -3 | 1 | 4
# Entry for `O=C(CCCOc1ccc(Cl)cc1Cl)Nc1ncccn1` : i | -3 | -4 | -6 | 0 | 1 | 5 | -1
# Entry for `COc1cc(Cl)c(S(=O)(=O)NCc2ccccn2)cc1Cl` : i | -23 | -14 | . | 4 | 4 | -1 | -2
# Entry for `CCn1c(SCC(=O)N2CCN(c3ccc(Cl)cc3)CC2)nc2ccccc2c1=O` : i | 29 | 2 | -20 | 47 | 4 | -5 | 5

# Additional entries.
SMILES,Rce1 inhib,Env fusion inh,eIF4H inh,Yeast UUG start,PABP polyA inh,CSC inhib,MT1-MMP act inh,MT1-MMP act inh RFP
O=C(O)c1ccc(CSc2nnc(-c3ccccc3)n2-c2ccccc2)cc1,i,5,-7,.,2,-2,0,3
N#C/C(=C\c1cc(Cl)c(OCc2ccc(Cl)cc2)c(Cl)c1)C(N)=O,i,.,-4,.,12,.,.,.
COc1ccc(CCNC(=O)CSc2n[nH]c(N)n2)cc1OC,i,2,1,-10,10,4,3,5
O=C(CSc1ccc2nnc(-c3ccccn3)n2n1)NCC1CCCO1 (stereo unspecified),i,-2,-14,2,8,-4,0,5
COC(=O)C1=C(C)N(CCCC(=O)O)C(=O)NC1c1cccs1 (stereo unspecified),i,16,2,-13,-10,-1,-2,1
CCCCN(Cc1ccccc1)S(=O)(=O)c1c(N)n(C)c(=O)n(C)c1=O,i,9,-2,-6,1,-10,-2,-3
Nc1ccc(NC(=O)CCN2CCOCC2)cc1,i,-2,-6,-14,-9,12,1,2
COc1ccc(S(=O)(=O)N2CCCCC2)cc1NC(=O)c1cncc(Br)c1,.,11,.,-14,.,-16,2,-3
CNC(=S)N1N=C(c2ccc(Br)cc2)CC1c1ccc(OC)cc1 (stereo unspecified),i,27,-13,.,4,-13,-3,-5
Cc1ccc(S(=O)(=O)c2c[nH]c3ccc(C)cc3c2=O)cc1,i,4,-7,-15,-8,-14,-2,0
COc1ccc(CC(=O)NCc2nnc(SCC(=O)Nc3nccs3)n2C)cc1,i,5,48,.,-9,.,1,1
Cc1ccc(NC(=O)CN(C)S(=O)(=O)c2cccs2)c(Br)c1,.,-6,-4,-1,-2,3,3,0
CCN(CC(=O)Nc1sc2c(c1C#N)CCCC2)Cc1nc2ccccc2c(=O)[nH]1,i,1,3,0,1,.,-1,-3
Cc1ccc2c(c1)sc1nc(=O)n(-c3ccccc3)c(=O)n12,i,-137,0,.,-8,15,1,4
O=C(CCCCn1c(=O)c2ccccc2n(CC(=O)NC2CCCC2)c1=O)NC1CCCC1,i,.,-10,-19,-1,-1,1,3
Cc1ccc(-c2csc(NC(=O)COC(=O)c3cccc(S(=O)(=O)N4CCOCC4)c3)n2)cc1,i,-102,-4,.,6,24,.,.
CN1CCN(C(=S)Nc2ccc(S(N)(=O)=O)cc2)CC1,i,-7,-5,.,-9,-10,2,7
CC(C)CN1C(=S)SC(C)(C)C1n1oc(=O)n(-c2ccc(Cl)cc2)c1=O (stereo unspecified),i,.,-3,.,-3,53,1,-2
O=C(NC(=S)Nc1cccc([N+](=O)[O-])c1)c1ccco1,i,-56,2,.,-13,.,1,-1
Cc1ccc2c(c1)Cc1nc3ccccc3nc1-2,i,-32,3,.,-3,0,1,7
CCS(=O)(=O)NCCc1csc(-c2ccccc2)n1,i,.,-7,-3,-7,-11,2,3
CCC1Oc2ccc(C)cc2N(CC(=O)N(Cc2ccc(C)o2)C2CCCC2)C1=O (stereo unspecified),i,-22,3,-13,7,-1,-10,-6
Cc1cccc2c(C(=O)N3CCN(C(=O)c4ccco4)CC3)cc(-c3cccc(Br)c3)nc12,i,11,-4,.,1,16,-7,-20
Nc1c(N(CCC2=CCCCC2)C(=O)COc2ccc(F)cc2)c(=O)[nH]c(=O)n1Cc1ccccc1,.,.,.,7,.,74,-7,-5
O=[N+]([O-])c1cc(C(F)(F)F)ccc1-n1nnc2ccccc21,i,-12,6,-18,0,9,-2,-3
COc1ccc(CN(Cc2ccc(OC)cc2)S(=O)(=O)c2ccc(-n3cnnn3)c(C)c2)cc1,i,19,1,-10,2,11,-1,-2
O=C1C2C3C=CC(c4ccccc4)(C2C(=O)N1c1cccc(Cl)c1)C1C(=O)N(c2cccc(Cl)c2)C(=O)C31 (stereo unspecified),i,-13,-9,1,4,-4,-2,-4
CCc1nc2ccc(C)cc2c(C(=O)Oc2cccc3cccnc23)c1C,i,-28,-2,-20,5,-8,-2,-2
COc1cccc(C(C)(O)c2nc(-c3ccccc3C)cs2)c1 (stereo unspecified),.,-39,.,8,.,.,4,-4
CCN(C(=O)c1cc2cc(OC)ccc2oc1=O)c1cccc(C)c1,i,-1,12,-4,-2,-5,-1,-1
CCOC(=O)c1c(-c2ccccc2)oc2ccc(OCC(=O)NNC(=O)CCCC(=O)O)cc12,i,-3,2,-11,14,-8,1,2
Cc1ccc(S(=O)(=O)/N=C(\CN2CCOCC2)N2CCCC2)cc1,i,.,-14,-7,-4,7,-3,0
Nc1nc(OCc2ccccc2)c2[nH]cnc2n1,i,8,.,6,.,-2,4,6
O=[N+]([O-])c1ccc(-c2ccc(C=Nc3cccc4ccccc34)o2)cc1,i,-80,23,-3,21,11,-6,5
CC1(C(=O)NS(=O)(=O)c2cccc(OC(F)F)c2)CCN1C(=O)CC1CCCC1 (stereo unspecified),.,5,.,-10,.,.,-1,2
Cc1ccc(C(NC(=O)N2CCOCC2)=C(Cl)Cl)cc1F,i,.,-11,.,0,40,0,0
CN1C(=O)CC(N2CCN(c3ccccc3)CC2)C1=O (stereo unspecified),i,-3,.,-18,.,-7,13,7
CC1(C)CC(=O)c2c(O)cc(OCc3ccc(Br)cc3)cc2O1,i,.,0,-6,-7,35,-2,-7
CN(CCOc1ccc(-c2ccn(S(=O)(=O)c3ccc(Cl)cc3)n2)cc1)c1ccccn1,.,60*,7,-12,-3,10,-3,-18
O=C(Nc1ccncc1)c1ccccc1[N+](=O)[O-],i,22,2,-9,19,-2,-14,-6
O=C(CSc1nc(C2CC2)nc2ccccc12)Nc1cccc(O)c1,i,-73,-3,-18,8,13,-4,-4
N#Cc1ccccc1Sc1ccccc1C(=O)OCC(=O)NC1CCS(=O)(=O)C1 (stereo unspecified),i,18,-1,.,3,15,1,5
CN1C[C@H]2CON(C)[C@H]2C[C@H]1c1cccc(-c2ccccc2)c1,.,-43,.,-16,.,.,4,6
Cc1ccc(S(=O)(=O)NC(C)C(=O)Nc2cccc([N+](=O)[O-])c2)cc1 (stereo unspecified),i,9,-8,-21,-3,-13,-5,-2
CCc1nn(CC(=O)NCCCN(C)Cc2ccccc2)c(=O)c2cc3sc(C)cc3n12,i,1,0,-10,-10,15,1,1
CN(CC(=O)Nc1cccc(F)c1)C(=O)c1cccnc1Sc1ccccc1Cl,i,8,.,-2,.,-10,2,0
CCn1ncc(C2=NOC(C(=O)Nc3cccc(C(C)=O)c3)C2)c1C (stereo unspecified),i,40,-2,.,4,-4,0,-12
O=C(COC(=O)/C=C/C(=O)N1CCN(c2ccccc2)CC1)NC(c1ccccc1)c1ccccc1,i,10,-1,.,8,.,1,0
COc1ccc(/C=C2\SC(=O)N(CCNC(=O)C3CCN(S(=O)(=O)c4cccs4)CC3)C2=O)cc1,i,.,-1,-10,-5,-9,5,1

# Bioassay records: PubChem BioAssay, several laboratories
